BasE inh: blocks the Acinetobacter baumannii siderophore enzyme BasE | purified BasE, fluorescence polarization binding displacement | inhibition, % (concentration not given with the values) | 84,000 tested, 0.1% active | AID 485350;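 active = both replicates above 25% with normal brightness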;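 note: 0% = negative plate control signal and 100% = positive plate control signal; stock transfer was 100 nL into about 30 µL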
LANA-nucl inh: inhibitors of KSHV LANA binding to nucleosomes; FITC-LANA1-23 / chicken nucleosome fluorescence polarization; stronger effect = lower value; z-score (test concentration not listed); 51,000 tested, 0.3% active; AID 720717;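 active = both repeat wells score below -2 in polarization z-score versus plate sample wells, excluding overly bright wells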;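 note: 100 nL library stock added to about 30 µL; numbers are from one replicate; some results filed as inactive read as strong as hits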
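Assay system: purified chicken nucleosomes with FITC-labelled LANA N-terminal peptide (1-23) / Probe or stimulus: 50 nM FITC-LANA1-23 probe / Compound dosing: pin-transferred compound, 100 nL / Times: compound with peptide–nucleosome mix 10–45 min at room temperature / Technique: fluorescence polarization, 480 nm excitation, 535 nm parallel and perpendicular emission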
* hit, by the source's call; . = no result given; & = joins results of further samples.

SMILES | BasE inh | LANA-nucl inh
CC(=O)N1c2ccc(S(=O)(=O)N3CCCC(C(=O)NC4CCCC4)C3)cc2CC1C (configuration not stated) | 1.8 | -1.3
Oc1ccccc1-c1nnc(-c2ccccc2)o1 | 1.6 | 1.4
COc1ccc(-c2nc(-c3ccc(C(F)(F)F)cc3)no2)cc1OC | 1.3 | 0.46
CCCc1cc(C(=O)N/N=C/c2cnn(C)c2)sc1C | -5.7 | .
COc1ccc(N2CC(C(=O)Nc3nc4ccc(S(C)(=O)=O)cc4s3)CC2=O)cc1 (configuration not stated) | -4.1 | 0.77
Cc1ccc(SC(=O)c2sc(-c3ccccc3)nc2C)cc1 | 2.5 | .
Cc1cc(SCC(=O)N2CCN(C)CC2)nc(SCC(=O)N2CCN(C)CC2)n1 | 2.3 | 0.59
CSc1nc(NC(=O)NS(=O)(=O)c2ccccc2Cl)nc(C2CC2)n1 | 0.7 | -0.89
CCS(=O)(=O)N(C)c1ccc(C(=O)Nc2cc(C)ccc2C)cc1 | -1.6 | 1
CC1(C)C=C(c2ccc(C(=O)O)s2)CC(C)(C)N1 | 0.3 | -0.36
CCN1C(=O)c2cccc3c(NC(=O)c4ccncc4)ccc1c23 | -0.1 | .
CCCNC(=O)C1CC(=O)N(c2ccc(C)c(Cl)c2)C1 (configuration not stated) | -13 | 0.39
COc1cccc(C2(O)CCN(CC(=O)N3CCCC3)CC2)c1 | -2.0 | 0.21
C/C(=N\NC(N)=O)c1cccc(Cl)c1 | 3.4 | .
O=C(NCCc1cnc[nH]1)NC12CC3CC(CC(C3)C1)C2 | -1.8 | 0.17
O=C(OCCN1CCCC1=O)c1ccc(F)cc1F | -1.6 | .
CCN1CCN(C(=O)C23CC4CC(C)(CC(C)(C4)C2)C3)CC1 | -0.1 | -0.22
COc1cc(/C=C2\SC(=O)NC2=S)ccc1O | 3.4 | -0.96
O=C(NC1CCCCCC1)C1CCCN(C(=O)N2CCOc3ccccc32)C1 (configuration not stated) | 2.0 | -0.034
O=C(c1ccccn1)c1ccc2ccccc2n1 | 2.0 | .
COc1ccc(C2CCCCCN2C(=O)CCN2C(=O)COc3ccccc32)cc1 (configuration not stated) | 3.0 | .
Cc1ccc2oc(=O)cc(CN3CC(C)OC(C)C3)c2c1 (configuration not stated) | -0.3 | -0.006
COc1ccc2ccccc2c1/C=N/NC(=O)C1CC1 | 1.2 | .
O=C(C1=C(O)C(=O)N(CCN2CCOCC2)C1c1ccccc1)c1ccco1 (configuration not stated) | -0.6 | 2.8
CCSc1nnc(-c2cccc(S(=O)(=O)N(CC)CC)c2)o1 | -1.9 | .
Later entries
SMILES | BasE inh | LANA-nucl inh
CCOC(=O)N1CCC(NS(=O)(=O)c2ccc(C)c(Cl)c2)CC1 | -0.1 | .
Cc1nn(-c2ccccc2)c(C)c1CN(C)Cn1c(=O)oc2ccccc21 | 2.5 | .
O=C(NC1CC1)c1cc(-c2ccccc2)nn1-c1ccccc1 | 1.1 | .
CN(CCC#N)C(=S)Nc1ccc(S(=O)(=O)N2CCOCC2)cc1 | 2.2 | .
O=C1c2ccccc2-c2n[nH]c(=S)nc21 | 0.7 | -0.97
CCN(CC)CCCN1C(=O)CSC1c1ccc2c(c1)OCO2 (configuration not stated) | -2.6 | 2
CCNc1nc(NN)nc(NCC)n1 | 1.1 | .
CN(C(=S)SCC1=CCS(=O)(=O)C1)C1CCS(=O)(=O)C1 (configuration not stated) | 0.0 | 1.3
CCOC(=O)C1CCCN(CC(=O)Nc2nccs2)C1 (configuration not stated) | 1.4 | -0.56
Cc1ccc(NC(=O)C/C(N)=N/O)cc1C | -1.8 | 1
COc1ccccc1NS(=O)(=O)c1ccc2oc(SC)nc2c1 | 0.2 | .
N#Cc1cccnc1N1CCN(C(=O)Nc2cccc3ccccc23)CC1 | 0.6 | .
CC1=C(c2ccc(C)cc2)[N+](=O)C(C)(C)N1[O-] | 2.1 | .
CC1CCC(NC(=O)c2ccc(N3C(=O)CCC3=O)cc2)CC1 (configuration not stated) | -1.1 | .
CN1CCC/C1=C1\C(=O)N(c2ccccc2)N=C1NC(=O)Nc1cccc(Cl)c1 | 2.0 | .
Oc1ccc(C=NCC2OCCc3ccccc32)cc1 (configuration not stated) | -2.6 | .
COC(=O)C[n+]1ccc(C)cc1 | 5.5 | -0.08
O=C(OCCOc1ccc(Br)cc1)c1cccs1 | 2.5 | .
CSc1ccc(CNc2ccccn2)cc1 | 1.3 | -0.13
CC1=C(C(=O)Nc2ccccc2)C(c2ccc(C(C)C)cc2)n2ncnc2N1 (configuration not stated) | 3.6 | 0.095
CSc1nnc(C)c(=O)n1COC(=O)/C=C/c1ccc2c(c1)OCO2 | 1.3 | -0.84
N#CC(C#N)=CNc1ccccn1 | 1.3 | -0.33
CCn1c(N)c(C(=O)COC(=O)c2c(C)nn(Cc3ccccc3)c2Cl)c(=O)[nH]c1=O | 2.8 | .
CC(C)(C)c1cc(NC(=O)CSc2ccc(S(=O)(=O)N3CCCC3)cn2)on1 | -1.9 | .
CNC(=S)N1CCN(c2nc3ccccc3s2)CC1 | 1.9 | -0.11
Later entries
SMILES | BasE inh | LANA-nucl inh
Cc1ccc(CS(=O)(=O)Cc2ccc(C(=O)NC3CC3)o2)cc1 | 4.1 | 0.55
COc1nc(NC(=O)c2ccc(F)cc2)nc(OC)c1-c1ccccc1 | -1.1 | .
O=C1/C(=C/c2ccccc2O)N=C2CCCCCN12 | 4.2 | .
C=CCOc1nc(NCC)nc(N(C)C)n1 | -0.1 | .
CN(C)S(=O)(=O)c1cccc(COC(=O)c2nn(C)c(=O)c3ccccc23)c1 | -1.0 | .
Cc1oc(-c2ccc(C(=O)N3CCCC3)cc2)nc1CS(=O)(=O)c1ccccc1 | -0.2 | -1.1
CCc1ccc(NC2CC(=O)N(c3ccccc3)C2=O)cc1 (configuration not stated) | 2.4 | -0.75
CCOc1ccc(-n2c(-c3ccc(OC)cc3)c[n+]3c2CCCCC3)cc1 | -5.6 | .
COc1ccc(CCCc2n[nH]c(=S)o2)cc1 | 0.9 | .
O=C(O)CSc1ccc(Oc2ccc(SCC(=O)O)cc2)cc1 | -2.5 | 1.7
CC(C)C1Cc2c(sc3c2c(=O)n(CCc2ccccc2)c2n[nH]c(=S)n32)CO1 (configuration not stated) | 3.7 | -0.44
O=C(NC(=S)Nc1ccc(-c2nc3ccccc3o2)cc1)c1ccc(F)cc1 | 1.5 | .
CCC(C)C(C(=O)Nc1ccc(N2CCOCC2)cc1N1CCOCC1)c1ccccc1 (configuration not stated) | 1.0 | .
CC(CC(=O)Nc1ccccc1)n1cccn1 (configuration not stated) | 9.1 | -0.97
Cc1ccc(NS(=O)(=O)c2cccc(C(=O)OC3CCOC3=O)c2)cc1 (configuration not stated) | 11 | .
O=C(O)COCC1COc2ccccc2O1 (configuration not stated) | 2.2 | 0.5
Clc1ccc2cn[nH]c2c1 | -0.3 | 0.26
O=C(Nc1ccc(Cl)cc1)C1CC(=O)N(CCc2ccc(Cl)cc2)C1 (configuration not stated) | . | -1.9
COCCn1nnnc1C(CC(C)C)N1CCN(c2cc(Cl)ccc2C)CC1 (configuration not stated) | -1.7 | -0.38
COc1ccc2c(c1)cc1n2CCN=C1NN | -1.9 | 0.58
CN(C)c1nc(N(C)C)nc(N(C)C#N)n1 | -0.6 | 0.91
O=C1CC(NC2CC2)C(=O)N1c1ccccc1 (configuration not stated) | 2.1 | -1
Cc1noc(C)c1C(=O)N1CCN(C(=O)c2sc3cc(Cl)ccc3c2Cl)CC1 | -2.3 | 1.4
CC12CN3CC(C)(CN(C1)C(=O)c1ccccc1C3=O)C2=O | 1.3 | 0.45
CC1=NS(=O)(=O)c2cc(Cl)ccc2N1 | 1.5&-4.5&-2.9 | 0.76&0.26&-0.13&0.15&2.3&0.73

Part of the list above in another layout:
Values run as follows: BasE inh	LANA-nucl inh
O=C(NC(=S)Nc1ccc(-c2nc3ccccc3o2)cc1)c1ccc(F)cc1
 : 1.5	.
CC12CN3CC(C)(CN(C1)C(=O)c1ccccc1C3=O)C2=O
 : 1.3	0.45
COCCn1nnnc1C(CC(C)C)N1CCN(c2cc(Cl)ccc2C)CC1 (configuration not stated)
 : -1.7	-0.38

The listing picks up, repeating the 4 entries before the break.
SMILES | BasE inh | LANA-nucl inh
O=C1CC(NC2CC2)C(=O)N1c1ccccc1 (configuration not stated) | 2.1 | -1
Cc1noc(C)c1C(=O)N1CCN(C(=O)c2sc3cc(Cl)ccc3c2Cl)CC1 | -2.3 | 1.4
CC12CN3CC(C)(CN(C1)C(=O)c1ccccc1C3=O)C2=O | 1.3 | 0.45
CC1=NS(=O)(=O)c2cc(Cl)ccc2N1 | 1.5&-4.5&-2.9 | 0.76&0.26&-0.13&0.15&2.3&0.73
CC(NC1CC(=O)N(C)C1=O)c1ccccc1 (configuration not stated) | -1.7 | 1.1
CCOc1ccc(C(=O)CCC(=O)N2CCN(C(=O)C3CC3)CC2)cc1 | -1.8 | .
CSc1nsc(SC)c1C(=O)NC(=O)Nc1ccc(Cl)cc1 | -0.7 | .
CN(C)C(=O)c1ccc(-n2cnc3ccccc3c2=O)cc1 | 0.0 | -0.68
CN(C)/C=N/c1cnc(C(=O)c2ccc(Cl)cc2)n1C | 0.1 | .
CC(C)[C@H](N)c1nnc(SCC(=O)N(C)C)o1 | -0.7 | 0.35
O=C(O)Cc1nnn(C23CC4CC(CC(C4)C2)C3)n1 | -23 | -0.3
Cc1cc(NCC(c2ccccc2)N(C)C)nc2ccccc12 (configuration not stated) | -5.2 | .
COc1ccc(CN2C(=O)CNC2=O)cc1 | 1.5 | -1.3
NC(=O)CSc1n[nH]c(COc2ccc(Cl)cc2)n1 | -0.3 | .
O=C(Cn1c(COc2ccccc2)nc2ccccc21)NC1=NCCS1 | -0.4 | .
O=C(c1cc2ccccc2o1)N1CCCC(c2nc3ccccc3s2)C1 (configuration not stated) | -0.2 | .
CC(OC(=O)c1ncc(Cl)c(Cl)c1Cl)C(=O)N1CCOCC1 (configuration not stated) | 1.6 | .
O=C(OCc1ccccc1)N1CCc2ccccc21 | -2.1 | 1.4
O=S(=O)(Nc1nc2ccccc2nc1Nc1ccc2nsnc2c1)c1ccccc1 | 1.5 | .
O=C(OC(c1ccccc1)c1ccccc1)c1ccncc1 | 0.3 | .
COc1cc(C(=O)OCC(=O)N(C)C2CCS(=O)(=O)C2)ccc1OCc1c(C)noc1C (configuration not stated) | -4.8 | .
COc1ccc2oc(=O)c(C(=O)O)cc2c1 | 3.2 | 0.11
OCCNCC(O)CN1c2ccccc2Sc2ccccc21 (configuration not stated) | -3.2 | 0.31
COc1ccc(C2=C(C)C(N3CCc4ccccc43)=NS2(=O)=O)cc1 | -0.8 | -0.26
CC(C)(C)n1cn[nH]c1=S | 5.0 | .
O=C(NCc1cccs1)c1cc2sccc2n1Cc1ccccc1 | -2.7 | 0.22
O=C(NN1C(=O)C2C3C=CC(C3)C2C1=O)C1CC=CCC1 (configuration not stated) | -1.9 | -0.17
CCCN1C(=O)CC(=O)N=C1SCC(=O)c1cc(C)n(-c2ccc(F)cc2)c1C | -0.5 | .
CCOC(=O)c1sc(N=NC2=C(O)CCCC2=O)c(C(=O)OCC)c1C | 1.1 | .

Reprinted at random: 4 compounds from above, in no set order.
SMILES | BasE inh | LANA-nucl inh
O=C(O)Cc1nnn(C23CC4CC(CC(C4)C2)C3)n1 | -23 | -0.3
O=C(NCc1cccs1)c1cc2sccc2n1Cc1ccccc1 | -2.7 | 0.22
CCCN1C(=O)CC(=O)N=C1SCC(=O)c1cc(C)n(-c2ccc(F)cc2)c1C | -0.5 | .
CC(C)(C)n1cn[nH]c1=S | 5.0 | .

(next part)
SMILES | BasE inh | LANA-nucl inh
CC1CCc2cc(F)ccc2N1C(=O)Cn1cc(C#N)c2ccccc21 (configuration not stated) | 0.6 | .
CC(=O)Oc1ccccc1C(=O)N(C(C)C)C(C)C | -2.5 | -1.2
CCCC(=O)NC1=C(C#N)C2(CCCC2)Cc2ccccc21 | -1.9 | 0.65
COC(=O)N/N=C1/C(=O)c2cccc3cccc1c23 | 0.6 | .
O=C(O)/C=C/c1ccc(OC(F)(F)C(F)C(F)(F)F)cc1 (configuration not stated) | -1.6 | .
COc1ccc(-c2cc(C(=O)OCC(=O)c3ccccc3)c3cccc(Cl)c3n2)cc1 | 3.0 | .
Cc1onc(-c2c(Cl)cccc2Cl)c1NC(=O)O/N=C/c1ccccc1 | 1.8 | 0.59
COc1cccc(N(C)C(=O)c2nn(Cc3ccccc3)c(=O)c3ccccc23)n1 | 0.7 | .
CCN(CC)C(C(=O)Nc1ccc2c(c1)OCO2)c1ccccc1 (configuration not stated) | -1.6 | 1.5
C=CCn1c(C)cc(C(=O)COn2nnc3ccc(Cl)cc32)c1C | -1.5 | .
CCC(CC)c1nc(C(N)=O)c2[nH]c(=O)n(-c3ccc(OC)c(OC)c3)c2n1 | -1.7 | -0.62
Cn1nc(C(=O)NC2CCCCCC2)ccc1=O | 2.3 | .
Oc1c(C(c2ccc(C(F)(F)F)cc2)N2CCCC2)ccc2cccnc12 (configuration not stated) | 1.8 | .
Cc1ccc2cc(CNCC(C)O)c(=O)[nH]c2c1C (configuration not stated) | -2.5 | 0.15
Cn1nc(C(N)=O)c2ccccc2c1=O | 0.6 | .
O=C(Nc1nc(-c2ccccc2)cs1)C12CC3CC(CC(C3)C1)C2 | -3.4 | .
O=C(CC(C(=O)O)C1CCCO1)Nc1ccc(F)cc1 (configuration not stated) | 1.1 | 0.033
O=C(/C=C/c1ccco1)N1CCN(C(c2ccccc2)c2ccccc2)CC1 | 4.1 | .
COc1cc(Cn2cnc3c(cnn3CCO)c2=O)cc(OC)c1 | -1.0 | -1.3

Entries of single compounds, quoted from the list. Values in the order: BasE inh	LANA-nucl inh
O=C(/C=C/c1ccco1)N1CCN(C(c2ccccc2)c2ccccc2)CC1 reads 4.1	.
CC(C)(C)c1cc(NC(=O)CSc2ccc(S(=O)(=O)N3CCCC3)cn2)on1 reads -1.9	.

An excerpt (hit frequency here may not be typical).
